AID504770 = E. coli YBA685 growth inhibition, screen for V. cholerae RctB inhibitors | hit rate 0.27% among 130,000 | z-score (concentration not given with the values) | E. coli YBA685 rctB-dependent plasmid, OD600 growth, 3 h; hits give low values | AID 504770;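 active means z-score under -2 on both plates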;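 further: wells of about 30 µL received 100 nL stock; score is relative to mean and SD of the test wells; the first replicate is given; strong numbers were not always called active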
CapD inh = inhibitors of Bacillus anthracis CapD enzyme | purified CapD enzyme, fluorescence intensity read-out; hits give low values; some hits fall short of the stated cut | hit rate 0.23% among 140,000 | z-score (no concentration beside the values) | AID 492967;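 active means z-score under -4 in either of two replicates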;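 further: stock transfer was 100 nL into about 40 µL; score is relative to mean and spread of the plate; one replicate is shown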
* hit, by the source's call; i = inactive; nt = no result given; & = joins results of further samples.

SMILES	AID504770	CapD inh
O=C(Nc1ccccc1NC(=O)c1cccs1)c1cccs1	-0.05	nt
O=C1CCCN2N=C(SCC(=O)N3CCc4ccccc43)SC2=N1	-0.05	-0.18
CCOC(=O)N1N=C(C)CC1(O)c1ccccc1 (configuration not stated)	-0.35	nt
CCOc1cc(/C=c2/sc3nc4ccccc4n3c2=O)cc(Br)c1O	nt	-0.405
COc1ccc(C2CC(C(F)(F)F)n3nc(C(=O)Nc4ccc(F)cc4F)c(Cl)c3N2)cc1OC (configuration not stated)	nt	-0.215
CCOC(=O)CSc1nc(NCCc2ccccc2)c2ccccc2n1	nt	0.185
CC(C)NC(=O)CSc1nnc(-c2ccc3c(c2)OCO3)o1	-0.65	nt
N#Cc1nc2n(c1C#N)CN(CCc1ccc(Cl)cc1Cl)CN2	1.4	nt
COc1cccc(-c2cc(C(=O)N3CCN(c4cc(C)ccc4C)CC3)[nH]n2)c1	0.4	-0.49
N#Cc1cnc(=S)[nH]c1N	nt	1.17
Cc1ccc2cc(C(=O)O)[nH]c2c1	-0.25	0.87
O=C(Nc1ccccc1Cl)c1ccc(-n2cnnc2)cc1Cl	-0.4	-0.185
O=C(NCc1ccco1)c1ccc2c(=O)n(CCc3c[nH]c4ccccc34)c(=S)[nH]c2c1	nt	-1.33
Cc1cc(-c2nc(C34CC5CC(CC(C5)C3)C4)cs2)no1	-0.1	1.09
CCc1nn2c(C(=O)NCc3ccccc3)cc(=O)nc2s1	1.35	nt
COc1cc(OC)c(NC(=O)c2sc3nc(C)nc(N4CCOCC4)c3c2C)cc1Cl	nt	1.02
COc1ccccc1CN(C)Cc1nc(N)nc(Nc2ccccc2C)n1	-0.3	nt
COc1cc(OC)nc(C(Sc2ccc(NC(=O)c3c(OC)cccc3OC)cc2)c2ccccc2)n1 (configuration not stated)	nt	-0.55
CC1=CC(=O)C(C(=O)/C=C/c2cc3ccccc3nc2N2CCOCC2)C(=O)O1 (configuration not stated)	-0.7	nt
CC1CCCC(NC(=O)Cn2c3ccccc3c3cn[nH]c(=O)c32)C1C (configuration not stated)	-0.65	5.46
CN(C)S(=O)(=O)c1cccc(COC(=O)c2cccnc2Cl)c1	0.45	nt
CC(=O)c1cn(Cc2ccccc2)c(=O)n(Cc2ccc(F)cc2)c1=O	nt	-0.48
COc1ccc(-n2cnnc2SCc2cnc(-c3ccccc3)s2)cc1	-0.2	nt
Cc1ccc(C#N)o1	0.8	nt
CCC1CCc2c(sc(NC(=O)c3sc4ccccc4c3Cl)c2C(=O)OC)C1 (configuration not stated)	nt	-0.12
(further entries)
SMILES	AID504770	CapD inh
O=C(N/N=C/c1ccco1)c1cccc(S(=O)(=O)Nc2cccc(Cl)c2)c1	-0.2	nt
Cc1ccc(C(=O)O)c2c1N[C@H](c1ccccc1Cl)C1CC=CC21 (some centres not stated)	0.25	11.3
O=C(O)C1CCCCC1C(=O)N1CCN(c2ccccn2)CC1 (configuration not stated)	-0.65	18.5
Cc1cc(C)c(S(=O)(=O)NCCc2ccncc2)c(C)c1	1.5	-0.43
Cc1ccc(CN2C(=O)c3ccccc3Sc3ccc(C(=O)NCCN4CCOCC4)cc32)cc1	-0.2	-0.015
O=C1NCCCC1C(=O)Nc1cccc(C(F)(F)F)c1 (configuration not stated)	0.55	2.22
CCOC(=O)c1cc(/C(C)=N/NS(=O)(=O)c2ccc(F)c(Cl)c2)on1	-0.1	-1.4
NC(=O)COC(=O)c1cn(-c2ccccc2)nc1-c1ccccc1	0.4	nt
OC(CNC12CC3CC(CC(C3)C1)C2)COCc1ccco1 (configuration not stated)	-0.65	nt
CCOC(=O)c1ccc(N2C(=O)c3[nH]nc(-c4ccc(OC)cc4)c3C2c2ccc(OC)cc2)cc1 (configuration not stated)	1.35	0.555
Cc1nc(COc2ccc(C(C)(C)C)cc2)sc1C(=O)NN	-0.3	8.77
COCCN(C1CCN(C)CC1)S(=O)(=O)c1ccc(NC(=O)c2c(F)cccc2F)cc1	nt	0.64
CC1=CC(=C(C#N)C#N)C=C(C)N1Cc1ccc(Cl)cc1	1.75	nt
COc1cc(Br)cc(/C=C2/C(=O)NC(=O)N(c3ccc(C)cc3)C2=O)c1O	nt	-0.815
COc1cccc(CNC(=O)c2ccc3nc(SCc4ccc(F)cc4)n(C)c3c2)c1	0.25	0.765
Clc1ccc(Cn2c(/N=C/c3ccc4c(c3)OCO4)nc3ccccc32)cc1	-0.1	-0.46
CC(C)(C)c1cc2nc(C(F)(F)F)cc(N3CCN(C(=O)OCCN4CCN(Cc5ccc(S(C)(=O)=O)cc5)CC4)CC3)n2n1	nt	12.6
CC(=O)N(Cc1cc2cccc(C)c2[nH]c1=O)C(C)(C)C	-0.1	nt
CCOC(=O)c1cn[nH]c1N	0.55	0.335&1.61
CN=c1scc(-c2ccc3c(c2)OCCO3)n1/N=C/c1ccc(NC(C)=O)cc1	0.4	nt
CCOC(=O)C1=CN(Cc2ccc(F)cc2)C=C(C(=O)OCC)C1c1ccc(OC)c(Br)c1	nt	29.9
Cc1cc(-n2c(C)cc(/C=C/C(=O)N3CCN(c4ncccn4)CC3)c2C)no1	2	nt
c1ccc2c(c1)-c1ccccc1C2N1CCOCC1	0.8	nt
CNc1ccccc1C(C)(C)c1cc(-c2cccs2)n[nH]1	0.35	-0.48
Nc1nc2c(c(=O)[nH]1)CCC2	0.3	nt
Continued.
SMILES	AID504770	CapD inh
NCC(=O)NCc1ccco1	-0.5	nt
O=C(NCc1ccccc1)c1cc(-c2ccccc2)n[nH]1	-0.8	-0.18
O=C(CCNS(=O)(=O)c1ccccc1)N1CCCc2ccccc21	0.6	nt
COc1ccc(-c2cc(NCc3ccccc3)n3cnnc3n2)cc1	-1.1	8.86
CCN(C(=O)c1cccc(F)c1)C1CCS(=O)(=O)C1 (configuration not stated)	0.2	nt
O=C(COC(=O)c1ccc(S(=O)(=O)N2CCOCC2)cc1)Nc1ncc(Cl)cc1Cl	-0.3	nt
O=C(NC1CCCCC1)C(c1ccccc1)N1CCc2ccccc21 (configuration not stated)	nt	0.28
O=C1c2ccccc2C(=O)N1CCCCN(C(=O)c1ccco1)c1ccc(Cl)cc1	0.65	nt
CC1S/C(=C(/C#N)C(=O)NCc2ccco2)N(Cc2ccco2)C1=O (configuration not stated)	-1.25	nt
COc1ccc(OC)c(NC(=O)CSCC(=O)O)c1	nt	-0.76
CCCCCCNC(=O)c1ccc2n[nH]nc2c1	nt	-0.17
COC(=O)C(C)Sc1ccc2nnc(-c3ccccc3)n2n1 (configuration not stated)	-0.95	2.84
CC(C)c1ccc(NC(=O)C(c2ccccc2)N(C)c2ccccc2)cc1 (configuration not stated)	nt	-0.24
O=C(CSCc1ccco1)c1ccco1	-0.05	nt
Nc1nc(-c2ccc(NC(=O)c3ccccc3)cc2)cs1	-1.25	-1.73
NC(=O)CC1C=CS(=O)(=O)C1 (configuration not stated)	-0.3	0.17
CC(C)n1c(=N)c(C#N)cc2c(=O)n3ccccc3nc21	-1.25	nt
Oc1ccc(-c2ccccc2)cc1CN1CCN(c2ccccc2)CC1	0.2	i
O=c1oc2ccc(Cl)cc2cc1-c1nc2ccccc2s1	-0.05	8.2
COc1ccc(-c2nc(C)c(CCNS(=O)(=O)c3ccc(Cl)s3)s2)cc1OC	-0.2	1.31
C=CCSc1nnc(C)c(/C=C/NOCc2ccc(Cl)cc2Cl)n1	nt	6.75
CCc1c(C)sc(NC(=O)c2cccs2)c1C(N)=O	-1.05	1.51
CN(Cc1ccccc1)CC(O)c1ccc2cc[nH]c2c1 (configuration not stated)	-0.15	-0.735
O=C(Nc1ccccc1)Nc1ccc2snnc2c1	-2.6*	-0.355
O=C(NCCO)c1cc2cc(Br)ccc2oc1=O	-0.5	1.29

Profiles, quoted from the list.
`O=c1oc2ccc(Cl)cc2cc1-c1nc2ccccc2s1` is listed as AID504770: -0.05; CapD inh: 8.2
`CCN(C(=O)c1cccc(F)c1)C1CCS(=O)(=O)C1` (configuration not stated) is listed as AID504770: 0.2; CapD inh: nt

The list goes on.
SMILES	AID504770	CapD inh
CCn1c(CCc2ccccc2)nc2ccccc21	-0.2	nt
CSc1nnc(C2CCCN(CC(=O)NC3CCCCC3C)C2)n1C (configuration not stated)	-0.15	nt
O=[N+]([O-])c1ccc(-c2nc3cc(Cc4ccc5nc(-c6ccccc6)c(-c6ccc([N+](=O)[O-])cc6)nc5c4)ccc3nc2-c2ccccc2)cc1	nt	-0.155
c1ccc(CN2CCN(Cc3nnc(-c4ccccc4)o3)CC2)cc1	-0.5	-0.075
CCOC(=O)C(C)Oc1ccc2c(=O)c(Oc3cccc(C)c3)c(C(F)(F)F)oc2c1 (configuration not stated)	nt	-0.215
CNC(=O)C1CC(=O)N(Cc2ccc(F)cc2)C(=Nc2ccc(F)cc2)S1 (configuration not stated)	0.3	nt
CCOC(=O)N1CCN(C(=O)CN(C)S(=O)(=O)c2ccc3c(c2)C(C)(C)C(=O)N3C)CC1	0.7	0.045
COc1cccc(C2Nc3cccc4cccc(c34)N2)c1O	0.85	-0.39
c1ccc(-c2cc3c(ccc4nonc43)nn2)cc1	nt	0.35
CC(=O)N1C(=S)NC(=O)/C1=C/c1cc2cc(C)ccc2nc1N1CCCCC1	nt	-0.185
CC(CCOC(=O)N1CCC(N2CCCCC2)CC1)c1ccccc1 (configuration not stated)	nt	-0.01
O=C(CSc1ncnc2sc(-c3ccccc3)cc12)c1cccs1	-0.25	-0.505
Cc1cc2nnc(C#N)c(C)n2n1	-1.05	-2.47
C=C1CC23CC4C5[C@@]6(C)C[C@H](OC(=O)c7ccccc7)[C@@H](OC(C)=O)[C@@]57C2[C@H](OC(C)=O)[C@@H]1[C@H](O)[C@H]3[C@H]7N4C6	nt	-0.015
O=[N+]([O-])c1cccnc1N1CCCNCC1	nt	-0.245
CSc1nc(N)nc(C(C)C)n1	nt	0.565
O=C(CCCN1C(=O)c2ccccc2Sc2ncccc21)NCc1ccccc1Cl	1.65	-0.74
CCn1c(NC(=O)COc2cccc(C(F)(F)F)c2)nc2ccccc21	0	0.21
CCOC(=O)C1CCCCN1S(=O)(=O)c1cc2c(cc1C)NC(=O)CO2 (configuration not stated)	-0.8	-0.64
CN(C)c1ccc(-c2ccc(N(C)C)cc2)cc1	0.3	8
Cc1ccc(Nc2nc(CSc3nc4ccccc4s3)cc(=O)[nH]2)cc1	0.75	0.165
COC(=O)C1=C(C(=O)OC)SC(=C2C(=S)C(C)(C)N(C(=O)CCC3CCCCC3)c3ccc(OC)cc32)S1	nt	-0.305
Cc1ccc(C(=O)C(C)C2c3cc(Br)ccc3OC(=O)C2C(=O)c2ccccc2)cc1 (configuration not stated)	0.85	0.24
CCOc1nc(-c2ccccc2)cc(-c2ccccc2)n1	-0.1	nt
COc1ccc(C(N)C(=O)O)cc1 (configuration not stated)	1.3	nt
The listing continues:
SMILES	AID504770	CapD inh
O=C(NCC1COc2ccccc2O1)C1CCN(S(=O)(=O)c2ccccc2)CC1 (configuration not stated)	0.95	nt
CN(C1CCCCC1)S(=O)(=O)c1ccc2c(c1)OCC(C(=O)N1CCCCC1)O2 (configuration not stated)	-0.8	0.19
Cc1ccc(S(=O)(=O)Nc2cc3c4c(oc3c3ccccc23)CC(C)(C)CC4=O)c(C)c1	nt	-0.295
COc1ccc(NC(=O)c2ccco2)cc1Nc1cc(C)nc2nc(-c3cccc(C)c3)nn12	-0.8	0.455
Nc1ccc(-c2n[nH]c(=O)c3ccccc23)cc1N	-0.5	-0.215
CC1CCN(C(=O)COC(=O)c2ccc(-c3ccccc3)cc2)CC1	1.45	-0.635
CCc1nnc(SCc2nc(-c3ccc(OC)c(OC)c3)oc2C)c2cc3oc(C)cc3n12	-1	3.88
CCOc1[nH]n(-c2ccc(Cl)cc2)c(=O)c1C=NCc1cccs1	nt	-0.295
CC(C(=O)Nc1ccc(Cl)cc1)c1ncc(C(F)(F)F)cc1Cl (configuration not stated)	nt	-0.185
O=C(O)COCC(=O)N1CCN(C2c3ccccc3-c3ccccc32)CC1	1.05	1.51
CC1CC(Nc2ccccc2)c2ccccc2N1C(=O)c1ccccc1F (configuration not stated)	-0.55	-0.14
Cc1cc(Cl)ccc1OCC(=O)Nc1ncnc2sc3c(c12)CCCC3	nt	-0.445
CC(Sc1nnc(-c2cccc(Br)c2)n1C)C(=O)NC1CC1 (configuration not stated)	0	nt
Cn1nc(C(F)(F)F)c2cc(C(=O)Nc3ccc(Cl)cc3)sc21	nt	-0.355
Cc1ccc(S(=O)(=O)OCC23C=CC(CC2)CC3)cc1	nt	0.625
O=C(COc1ccc(F)cc1)N/N=C/c1ccc(Oc2ccccc2)cc1	nt	-0.94

By substructure: the entries above with an aryl thioether with sulfur outside any ring.
SMILES	AID504770	CapD inh
CCOC(=O)CSc1nc(NCCc2ccccc2)c2ccccc2n1	nt	0.185
CC(C)NC(=O)CSc1nnc(-c2ccc3c(c2)OCO3)o1	-0.65	nt
COc1cc(OC)nc(C(Sc2ccc(NC(=O)c3c(OC)cccc3OC)cc2)c2ccccc2)n1 (configuration not stated)	nt	-0.55
COc1ccc(-n2cnnc2SCc2cnc(-c3ccccc3)s2)cc1	-0.2	nt
COc1cccc(CNC(=O)c2ccc3nc(SCc4ccc(F)cc4)n(C)c3c2)c1	0.25	0.765
COC(=O)C(C)Sc1ccc2nnc(-c3ccccc3)n2n1 (configuration not stated)	-0.95	2.84
C=CCSc1nnc(C)c(/C=C/NOCc2ccc(Cl)cc2Cl)n1	nt	6.75
CSc1nnc(C2CCCN(CC(=O)NC3CCCCC3C)C2)n1C (configuration not stated)	-0.15	nt
O=C(CSc1ncnc2sc(-c3ccccc3)cc12)c1cccs1	-0.25	-0.505
CSc1nc(N)nc(C(C)C)n1	nt	0.565
Cc1ccc(Nc2nc(CSc3nc4ccccc4s3)cc(=O)[nH]2)cc1	0.75	0.165
CCc1nnc(SCc2nc(-c3ccc(OC)c(OC)c3)oc2C)c2cc3oc(C)cc3n12	-1	3.88
CC(Sc1nnc(-c2cccc(Br)c2)n1C)C(=O)NC1CC1 (configuration not stated)	0	nt

High-throughput results: PubChem, ICCB-Longwood Screening Facility, Harvard Medical School

Only part of the results is shown; rates above refer to the full screens.
